# KCNQ2 inh = KCNQ2 potassium channel inhibitors, primary screen, cell-based, CHO-K1, FluxOR thallium flux, B-score (AID 2156); O88943; 20 min; hits give low values; only compounds with negative scores are shown here; some inactives read as strong as hits; B-score at 10 µM; hit rate 1.1% among 310,000;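 active = fluorescence ratio B-score at most minus 3 library SDs, with starting brightness B-score within 2 library SDs, cut at about -5.5 in these data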
# Target sequence (O88943 whole entry, looked up): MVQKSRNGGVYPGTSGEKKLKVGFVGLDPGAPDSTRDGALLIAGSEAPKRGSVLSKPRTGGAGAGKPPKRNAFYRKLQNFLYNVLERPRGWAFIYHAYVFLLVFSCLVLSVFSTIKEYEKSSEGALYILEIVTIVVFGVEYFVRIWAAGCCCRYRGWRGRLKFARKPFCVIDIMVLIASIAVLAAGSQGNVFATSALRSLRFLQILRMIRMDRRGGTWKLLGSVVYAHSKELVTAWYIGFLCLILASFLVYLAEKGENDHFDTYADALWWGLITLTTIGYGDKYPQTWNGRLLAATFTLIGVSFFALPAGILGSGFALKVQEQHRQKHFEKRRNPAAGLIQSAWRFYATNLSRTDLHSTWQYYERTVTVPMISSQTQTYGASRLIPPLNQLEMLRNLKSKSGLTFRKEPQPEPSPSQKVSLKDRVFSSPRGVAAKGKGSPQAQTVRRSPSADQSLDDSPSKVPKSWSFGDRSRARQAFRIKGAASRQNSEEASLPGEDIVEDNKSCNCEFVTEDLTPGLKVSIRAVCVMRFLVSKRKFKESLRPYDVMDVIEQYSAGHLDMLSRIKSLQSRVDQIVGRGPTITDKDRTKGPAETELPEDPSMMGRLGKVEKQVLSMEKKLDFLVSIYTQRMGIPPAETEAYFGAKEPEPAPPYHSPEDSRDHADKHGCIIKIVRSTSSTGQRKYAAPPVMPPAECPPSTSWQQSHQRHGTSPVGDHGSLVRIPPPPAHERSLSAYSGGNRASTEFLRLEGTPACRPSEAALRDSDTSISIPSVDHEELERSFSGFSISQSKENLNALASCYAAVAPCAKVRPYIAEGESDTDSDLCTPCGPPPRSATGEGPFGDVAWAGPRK
# KCNQ2 inh baseline = also measured in KCNQ2 inh; calls as there; B-score; measured here: initial fluorescence intensity artifact check;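 brightness before thallium and not channel activity; 0 = typical well and far values either way flag optical interference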
# The depositor's hits bear a star; i = inactive.
SMILES,KCNQ2 inh,KCNQ2 inh baseline
COc1ccc(NC(=O)CN(C)S(=O)(=O)c2ccccc2)cc1OC,i,1.24
Cc1ccc(NC(=O)C2CCCN2c2nn3c(=O)cc(C)nc3s2)cc1 (configuration not stated),i,-0.92
C=CCN1C(=O)/C(=C/c2ccc(-c3ccc(F)cc3)o2)SC1=S,i,0.54
Clc1ccc(CSc2ncnc3nc[nH]c23)cc1,i,1.42
Cc1ccc(OC(=O)CCc2c(C)nc3ncnn3c2C)cc1,i,-0.1
CC1(C)CC(=O)C2=C(C1)N=C1SCCC(=O)N1C2c1cccc([N+](=O)[O-])c1 (configuration not stated),i,-0.8
COc1ccccc1NC(=O)c1ccc(COc2ccc3c(c2)CCC3)cc1,i,0.45
CN1C(=O)S/C(=C/c2ccccc2OCc2ccc(C(=O)O)cc2)C1=O,i,-0.2
COC(=O)c1sc(N)c(C(=O)OC)c1COC(=O)C12CC3CC(CC(O)(C3)C1)C2,i,-1.35
CC1CCc2sc(C(=O)NC(C)C3CCCO3)cc2C1 (configuration not stated),-6.08*,0.89*
COc1ccc(-c2noc3c2-c2nc(-c4ccccc4C)sc2CC3)cc1,i,0.28
Cc1coc2c(C)c3oc(=O)c(CCC(=O)NCCCN4CCOCC4)c(C)c3cc12,i,0.66
Cc1cc(=O)oc2cc(NC(=O)C(C)Oc3ccccc3)ccc12 (configuration not stated),i,-1.14
COc1ccc(C)cc1N(CC(=O)N1CCCCCC1)S(=O)(=O)c1ccccc1,i,-1.99
CC(C)[C@H](NC(=O)c1ccccc1)C(=O)OCc1nnc(-c2ccccc2)o1,i,1.18
CN1C(C(=O)N2CCc3ccccc3C2)=CC(c2ccc(F)cc2)=NS1(=O)=O,i,1.4
CCN(CC1COc2ccccc2O1)C(=O)CN1C(=O)NC(C)(c2ccc(C)cc2)C1=O (configuration not stated),i,4.33
O=c1cc(CSc2ccccc2)[nH]c2ccccc12,i,0.63
CSCC[C@H](NC(=O)[C@H](Cc1ccccc1)n1c(=O)[nH]c2ccccc2c1=O)C(=O)N1CCC(C(=O)O)CC1,i,-0.18
Clc1cccc(C[n+]2cc(-c3ccccc3)n3c2CCC3)c1,i,-0.25
C=CCON1C(=O)c2ccccc2C1=O,i,0.54
COC(=O)c1sccc1NC(=O)c1cccs1,i,-1.33
O=[N+]([O-])c1cc(Cl)cc(/C=N/n2cnnc2)c1O,i,-2.19
O=C1CCC(C(=O)N2CCCC(Nc3ccc(F)cc3)C2)=NN1 (configuration not stated),i,-0.68
O=C(Oc1ccc(C(=S)N2CCOCC2)cc1Cl)c1ccccc1F,i,0.9

# Quoted from the listing:
# `O=[N+]([O-])c1cc(Cl)cc(/C=N/n2cnnc2)c1O` in KCNQ2 inh baseline is listed with -2.19
# `COC(=O)c1sccc1NC(=O)c1cccs1` in KCNQ2 inh baseline is listed with -1.33
# `COc1ccc(-c2noc3c2-c2nc(-c4ccccc4C)sc2CC3)cc1` in KCNQ2 inh baseline is listed with 0.28
# `C=CCN1C(=O)/C(=C/c2ccc(-c3ccc(F)cc3)o2)SC1=S` in KCNQ2 inh baseline is listed with 0.54

# (cont.)
SMILES,KCNQ2 inh,KCNQ2 inh baseline
Cc1ccccc1NS(=O)(=O)c1cc2c3c(c1)C(C)C(=O)N3CCC2 (configuration not stated),i,-0.38
Cc1cc(C)cc(NS(=O)(=O)c2ccc(NC(=S)Nc3ccccc3)cc2)c1,i,-0.05
C=CCn1c2ccccc2c2nnc(SCc3ccc4nonc4c3)nc21,i,1.64
COc1cccc(CNC(=O)N[C@@H](C)C(=O)O)c1,i,-2.14
O=C(c1ccc(Cl)cc1)C1CCN(C(=O)N2CCOCC2)CC1,i,-0.08
CCOC(=O)c1ccc(NC(=O)CSc2nncn2-c2cccnc2)cc1,i,-0.12
CCCCCOc1ccccc1C(=O)NCCC(=O)O,i,-0.47
COc1ccc(/C=C2\SC(=NCc3ccccc3)N(Cc3ccccc3)C2=O)cc1OC,i,-1.26
CN(C)S(=O)(=O)c1ccc(NC(=O)N2CCN(c3ccccc3Cl)CC2)cc1,i,-2.43
O=C(Nc1ccc(C(=O)NCc2ccccc2Cl)cc1)C1=CSCCO1,i,-1.12
CCCn1c(N2CCOCC2)nc2c1c(=O)[nH]c(=O)n2C,i,0.48
Oc1ccc(/C=N/NC(=S)N2CCOCC2)cc1,i,-0.03
Cc1cccc(Cn2c(N3CCc4ccccc4C3)nc3c2c(=O)[nH]c(=O)n3C)c1,i,-0.31
Oc1ccccc1CNCCCN1CCOCC1,i,-0.22
CCCNS(=O)(=O)c1cc2c3c(c1)CCN3C(=O)CC2,i,1.4
COc1cc(NC2c3ccccc3C(=O)N2c2cc(C)ccn2)cc(OC)c1OC (configuration not stated),i,-0.32
CCC/C=C(\CCC)C(NS(=O)(=O)c1ccc(C(F)(F)F)cc1)c1ccccc1 (configuration not stated),i,0.21
CC(C)C(NS(=O)(=O)c1cccc2nsnc12)C(=O)Nc1nc2ccc(Cl)cc2s1 (configuration not stated),i,0.56
COc1ccc(OC)c(CNS(=O)(=O)c2c(C)nc3scc(C)n3c2=O)c1,i,-2.13
CC(C)C[C@H]1C(=O)N2CCC[C@H]2[C@]2(O)O[C@](NC(=O)[C@@H]3C=C4c5cccc6[nH]c(Br)c(c56)CC4N(C)C3)(C(C)C)C(=O)N12 (some centres not stated),i,-0.09
CCn1c(=O)c(=O)n(CC)c2cc(S(=O)(=O)N3CCc4ccccc43)ccc21,i,1.67
Cc1csc(CN(C)C(=O)C2CCC(=O)N(CCN(C)C)C2)n1 (configuration not stated),i,0.39
O=C(COc1coc(CN2CCN(c3ccccc3F)CC2)cc1=O)Nc1ccccc1,i,-0.76
FC(F)(F)c1cc(-c2cccs2)nc(N2CCOCC2)n1,i,0.45
CCOCCCn1c(SCC(=O)Nc2ccc(OC)cc2)nc2ccccc2c1=O,i,-0.35

# 6 records picked at random from the list so far, as already listed:
SMILES,KCNQ2 inh,KCNQ2 inh baseline
Cc1ccccc1NS(=O)(=O)c1cc2c3c(c1)C(C)C(=O)N3CCC2 (configuration not stated),i,-0.38
CCC/C=C(\CCC)C(NS(=O)(=O)c1ccc(C(F)(F)F)cc1)c1ccccc1 (configuration not stated),i,0.21
Oc1ccccc1CNCCCN1CCOCC1,i,-0.22
Cc1cc(C)cc(NS(=O)(=O)c2ccc(NC(=S)Nc3ccccc3)cc2)c1,i,-0.05
COc1ccc(/C=C2\SC(=NCc3ccccc3)N(Cc3ccccc3)C2=O)cc1OC,i,-1.26
Oc1ccc(/C=N/NC(=S)N2CCOCC2)cc1,i,-0.03

# (next part)
SMILES,KCNQ2 inh,KCNQ2 inh baseline
Cc1ccc(NC(=O)Cn2c(=O)oc3ccccc32)cc1Cl,i,-0.81
CN(C1CCCCC1)S(=O)(=O)c1ccc(NC(=O)C2CCCCC2)cc1,i,-2.52
O=C(N/N=C/c1ccc(-c2ccccc2C(=O)O)o1)c1cccs1,i,-0.21
CCOC(=O)CSc1nc2c(sc(=S)n2CCc2ccccc2)c(=O)n1Cc1ccco1,-5.6*,-0.41*
CCN(CC)S(=O)(=O)c1ccc(N2CCOCC2)c(NS(=O)(=O)c2ccc(OC)cc2)c1,i,0.99
COc1ccc(N2CCN(C(=O)c3cc(=O)c4cc(C)c(C)cc4o3)CC2)cc1,i,1.85
CC1CCc2nc(N)c(C#N)c(-c3cccn3C)c2C1 (configuration not stated),i,0.03
FC(F)(F)c1nnc2ccc(Sc3ccccn3)nn12,i,-0.44
CCOc1ccc(-c2csc(/C(C#N)=C\c3ccc(O)c([N+](=O)[O-])c3)n2)cc1,i,-0.36
O=C1CN(c2ccccc2)C(=S)N1c1ccccc1,i,-0.61
CC(C)(C)c1cc(C(c2cccnc2)N2CCN(CCO)CC2)cc(C(C)(C)C)c1O (configuration not stated),-9.15*,2*
CCOC(=O)C1=C(C)NC(=S)NC1c1ccsc1 (configuration not stated),i,2.68
CCCOC(=O)Nc1sc2c(c1C(=O)OCC)CCC2,i,1.9
O=C1C2ON(c3ccccc3)C(c3cccnc3)C2C(=O)N1c1ccccc1 (configuration not stated),i,-1.65
CC1=CC(c2ccc(Cl)cc2)n2nc(NS(=O)(=O)c3ccc(C)cc3)nc2N1 (configuration not stated),i,2.13
CCc1cc(C(=O)NNC(=S)NCC2CCCO2)cs1 (configuration not stated),i,-0.8
O=C(CSCc1ccc(F)cc1)NCc1ccc2c(c1)OCO2,i,-1.92
CCOC(=O)c1ccc(S(=O)(=O)N2CCNCC2)cc1,i,2.16
CCN1CCN(c2cc(C)c3cc(NC(=S)NCCCN4CCc5ccccc5C4)ccc3n2)CC1,i,-2.19
Cc1occc1C(=O)Nc1nnc(-c2cccs2)s1,i,-1.05
CN1C(=O)/C(=C/c2cn(CC(=O)N3CCCCC3)c3ccccc23)c2ccccc21,i,0.02
Cc1ccc(C(=O)N/C(=C\c2ccc(F)cc2)C(=O)NCCCn2ccnc2)cc1,i,1.04
CN(C)CCCOc1ccc(C(C)(C)c2ccccc2)cc1,i,0.24
CCOC(=O)c1cnc(-n2cc(C)cn2)nc1Nc1ccccc1OCC,i,0.05
O=C1c2ccccc2C(=O)N1OCCOCCOCCON1C(=O)c2ccccc2C1=O,i,-0.29
# More structures follow.
SMILES,KCNQ2 inh,KCNQ2 inh baseline
Cc1onc(C(=O)N2CCN(Cc3ccccc3)CC2)c1[N+](=O)[O-],i,0.28
Cc1c(Br)c(C(=O)NCc2cc3cc(Cl)ccc3[nH]2)nn1C,i,-1.21
O=C1CCN(S(=O)(=O)c2ccc(Cl)cc2)CC1,i,-1.42
COc1ccc(/C=C/CN2CCCC(C(=O)c3cc(F)ccc3F)C2)cc1 (configuration not stated),i,-0.85
NC(=O)C1CCN(C(=O)CCc2ccsc2)CC1,i,-2.24
C=CCn1c(O)c(N=O)c2ccccc21,i,2.49
C=CCNC(=S)NCC,i,4.68
CCN(CC)CCN(Cc1cc2cc3c(cc2[nH]c1=O)OCCO3)C(=S)NCCCN(C)C,i,-1.94
CCOc1ccc(Oc2ccc(Cl)cc2N)cc1,i,-0.11
CCNC(=O)NC(=O)CSc1ccc(NC(C)=O)cc1,i,0.02
O=[N+]([O-])c1ccc(/C=N/Nc2nc3ccccc3o2)cc1,i,-0.86
O=C(COC(=O)c1ccccc1)Nc1cccc(S(=O)(=O)NC2=NCCCCC2)c1,i,0.75
Cc1cc(C)c(S(=O)(=O)N(C2=NCCS2)S(=O)(=O)c2c(C)cc(C)cc2C)c(C)c1,i,-0.23
CS(=O)(=O)c1sc2nc(-c3ccccc3)cc(-c3ccccc3)c2c1N,i,0.68
O=C1CC(c2cccs2)Sc2nc3ccccc3n21 (configuration not stated),i,0.27
COc1ccc(N2CCN(c3nc4ccccc4nc3NS(=O)(=O)c3ccccc3)CC2)cc1,i,1.27
O=C(Cn1cncn1)NCc1cc(F)ccc1F,i,-0.55
O=c1nc(/C=C/c2ccc(-c3ccc(F)cc3)o2)cc(C(F)(F)F)[nH]1,i,14.6
COc1ccc(OC)c(NC(=O)NNC(=O)COc2ccc([N+](=O)[O-])cc2)c1,i,1.11
Cc1cc2oc(C(=O)N(Cc3ccccc3)C3CCS(=O)(=O)C3)c(C)c2cc1C (configuration not stated),i,1.66
CCOC(=O)c1sc(NC(NC(=O)c2ccco2)(C(=O)OC)C(F)(F)F)nc1C (configuration not stated),i,-0.04
COc1ccccc1N1CCN(S(=O)(=O)c2ccc(Cl)s2)CC1,i,-0.67
Cn1ccnc1SCc1cc(=O)[nH]c2ccccc12,i,-2.16
N#Cc1c(-c2cccc(Br)c2)cc(-c2cccnc2)nc1N,i,0.06
N#Cc1c(/N=C/c2ccco2)sc2c1CCC2,i,1

# Copied from the results shown for reference:
SMILES,KCNQ2 inh,KCNQ2 inh baseline
N#Cc1c(-c2cccc(Br)c2)cc(-c2cccnc2)nc1N,i,0.06
N#Cc1c(/N=C/c2ccco2)sc2c1CCC2,i,1

# (more compounds)
SMILES,KCNQ2 inh,KCNQ2 inh baseline
CN(C)c1nc2c(c(=O)[nH]c(=O)n2C)n1CCOc1ccccc1,i,1.98
O=C(Cc1cccs1)Nc1nnc(CCc2ccccc2)s1,i,0.11
Cc1ccc(N2C(=O)c3cccc(Oc4ccc(Cl)cc4)c3C2=O)c(C)c1,i,-1.46
COc1cc2c(cc1OC)CN(C(=O)c1cc(S(=O)(=O)N3CCCCC3)ccc1Cl)CC2,i,2.38
OCCN1CCN(Cc2nc(-c3cccc(Cl)c3)no2)CC1,i,-0.42
COc1cccc(CNC(=O)CSc2ccc(-c3ccco3)nn2)c1,i,-0.22
CCOC(=O)c1cnn(-c2ccccc2)c1NC(=O)CSc1nnc(-c2cccs2)n1CC,i,-1.1
CCOC(=O)CSc1nnc(CNc2ccc(Cl)cc2)n1-c1ccccc1,-8.9*,0.68*
CC1CCN(CCCNC(=O)Cn2ncc3c([nH]c4ccccc43)c2=O)CC1,i,0.23
O=C(CN1CCN(S(=O)(=O)c2ccccc2F)CC1)NC1CCCC1,i,-0.21
N#Cc1c2ccc(OCC(=O)NCc3ccco3)cc2n2ccccc12,i,-0.26
NC(Cc1ccc(OC(F)F)cc1)C(=O)O (configuration not stated),i,-2.33
CCc1cc2ccc(C)cc2nc1SCC(=O)N1CCN(C(=O)c2ccco2)CC1,i,-0.42
CCCCN1Cc2cc(C(=O)c3cc(F)ccc3O)cnc2NC1=O,i,1.85
CN(CC(=O)Nc1ccccc1Br)CC(=O)Nc1ccccc1C(F)(F)F,i,1.94
O=C(CCSCc1cccc(Cl)c1)NCCc1ccc(Cl)cc1,i,1.95
Cc1ccc(Cl)cc1N1CCN(S(=O)(=O)c2ccc3[nH]c(=O)c(=O)[nH]c3c2)CC1,i,-1.64
CC1(NC(=O)NCCCCCCNC(=O)NC2(C)CCS(=O)(=O)C2)CCS(=O)(=O)C1 (configuration not stated),i,-0.02
CC(=O)N(C(C)=O)N1C(=O)/C(=C/c2ccc(Cl)cc2)SC1=S,i,-1.21
Cc1ccc(N2CC(C(=O)Oc3cccc(N4C(=O)CCC4=O)c3)CC2=O)cc1 (configuration not stated),i,-0.1

# From PubChem

# Not all compounds are listed. The share of hits here may be higher or lower than overall.
